# Screening results deposited in PubChem by ICCB-Longwood Screening Facility, Harvard Medical School.
# Choline anaer gr: blocks anaerobic gram-negative growth on choline; 0.2% of 55,000 active; Gram-negative bacterium anaerobic choline minimal medium, absorbance growth; active compounds read low; many inactives read as strong as hits in the columns shown; AID 1963822; calls only;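 active = growth z-score on choline under -2 at 7 or 20 h with little or no fall on glycerol, limits in tiers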;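 also: stock transfer was 300 nL into about 50 µL; the organism is E. coli; final concentration not given here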
# Choline anaer gr early: further read-out of Choline anaer gr, marked with its call; z-score; measured here: choline growth z-score, timepoint 1;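 score of optical density at 7 h as mean of two plates; lower means less growth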
# * hit, by the source's call; i = inactive; + = active, no number; & = joins results of further samples. Only part of the results is shown. The share of hits here may be higher or lower than overall.
SMILES,Choline anaer gr,Choline anaer gr early
O=c1ccc(-c2ccc(Cl)c(S(=O)(=O)N3CCCCC3)c2)n[nH]1,i,0.44
CCc1ccc(NC(=O)Nc2c(-c3ccccc3)[nH]c3ccccc23)cc1,+,-0.84*
COc1ccc(N2CCN(c3nccc4ccc(C(=O)Nc5cc(Cl)ccc5C)cc34)CC2)cc1,i,-0.38
Cc1noc2ncnc(N(C)C3CCCCC3)c12,i,-0.27
C=CCNC(=O)CSc1nnc2c3ccccc3nc(-c3ccccc3)n12,i,0.19
COc1ccc(CCNC(=O)c2ccc(C3SCC(=O)N3CCc3ccccc3)cc2)cc1OC (configuration not stated),i,0.07
CCc1nc2onc(C)c2c(=O)n1CC(=O)NCCC1=CCCCC1,i,-0.43
Cc1ccccc1Cn1cccc1CNC(=O)NCC1CCCO1 (configuration not stated),i,0.3
FC(F)(F)c1cc(-c2ccccn2)nc2cc(-c3ccc(Cl)cc3)nn12,i,-0.85
O=C(Nc1ccc2c(c1)OCCO2)C1CCN(c2ncc(-c3ccccc3)cn2)CC1,i,0.05
CCOc1ccc(NC(=O)Cn2c(=O)n(-c3ccccc3)c(=O)c3sc(SCC)nc32)cc1,i,0.55
CCc1ccc(-c2n[nH]c(=O)c3c2CCCC3)cc1S(=O)(=O)N(CC)Cc1ccccc1,i,0.81
COCC(C)NC(=O)CSc1nnc(-c2cc3ccccc3o2)n1C (configuration not stated),i,-0.7
Cn1nc(-c2nc(-c3ccccc3)no2)c2c1CCN(S(=O)(=O)c1ccc3c(c1)OCCO3)C2,i,-0.39
CCc1onc(C)c1C1CCCN1Cc1ccccc1O (configuration not stated),i,-2.05
CC1CCN(S(=O)(=O)c2cc(-c3nnc(C4CCC4)o3)co2)CC1,i,-0.12
CC(CCc1ccccc1)Nc1cc(-c2ccccc2)nc2nc(-c3cccnc3)nn12 (configuration not stated),i,-1.07
CC(=O)NCc1nc(-c2cc3c(C)nn(-c4ccccc4)c3s2)no1,i,1.2
Cc1ccc(-c2ccc(N3CCC(C(=O)N4CCC(C)CC4)CC3)nn2)cc1,i,1.16
Cc1cc(NS(=O)(=O)c2cc(-c3noc(C(=O)N4CCCC4)n3)ccc2C)no1,i,-2.21
CCCN1C(=O)COc2ccc(-c3noc(C(C)Oc4ccccc4)n3)cc21 (configuration not stated),i,2.46
CCCn1c(=O)c2ccccc2n2c(=O)n(CC(=O)N3CCN(c4ccccc4F)CC3)nc12,i,-0.67
O=C(NCCCN1CCc2ccccc2C1)c1cc(=O)n2c(nc3ccccc32)s1,i,-1.16
CC(=O)c1ccc2c(c1)Sc1ccccc1N2CCCN1CCN(CCO)CC1,i,0.05
COc1ccc(-n2nc(C(=O)N3CCC(N4CCCCC4)CC3)c3c4ccccc4n(C)c3c2=O)cc1,i,-0.28

# Following part
SMILES,Choline anaer gr,Choline anaer gr early
CCC1Cn2c(C(=O)NCCN(C)C3CCCCC3)cc3cccc(c32)O1 (configuration not stated),i,0.18
CCS(=O)(=O)c1ccc2c(c1)NC(=S)CO2,i,0.73
O=C(CC1CCCCC1)N1CCC(N2CCN(Cc3ccc(F)cc3)C(=O)C2=O)CC1,i,-0.25
CN1CCCn2nc(C3CCN(C(=O)CC(C)(C)C)CC3)cc2C1=O,i,-0.07
COc1cc(N)c(Cl)cc1C(=O)OCCCN1CCCCC1,i,0.47
O=C(C1CCN(c2cnc(N3CCSCC3)nc2)CC1)N1CCC2(CC1)OCCO2,i,0.97
CC1=C(C(=O)Nc2ccc(Cc3ccncc3)cc2)C2(CCCCC2)OC1=O,i,-0.05
CCc1nc(CN2C(=O)COc3ccc(S(=O)(=O)NC(C)CC)cc32)no1 (configuration not stated),i,0.01
O=C1COc2ccccc2N1Cc1nc(-c2ccc3c(c2)ncn3C2CCCC2)no1,i,0.15
N#Cc1nc(-c2ccc(S(=O)(=O)N3CCCCC3)cc2)oc1N1CCc2ccccc2C1,i,1.04
Cc1ccc(-c2noc(C3CC3)n2)cc1S(=O)(=O)NC(C)C(=O)N1CCc2ccccc21 (configuration not stated),i,-1.73
O=C(NCc1ccc2c(c1)OCO2)c1ccccc1-c1nc(-c2ccccc2)no1,i,-0.46
COc1ccc(-c2nn3c(-c4ccc5ccccc5n4)nnc3s2)cc1OC,i,0.78
CCOc1ccc(-c2noc(-c3cnn4c(C)c(Cc5ccccc5C)c(C)nc34)n2)cc1,i,-0.93
CCNS(=O)(=O)c1ccc2c(c1)N(Cc1noc(CC)n1)C(=O)CO2,i,-0.86
Cc1cccc(CN=C2Nc3ccccc3NC23CCC(C)CC3)c1 (configuration not stated),i,-0.03
O=S(=O)(c1ccc(S(=O)(=O)N(Cc2ccc(Cl)cc2)CC2CCCO2)cc1)N1CCCCC1 (configuration not stated),i,1.42
CCc1nnc(NC(=O)CCc2nc(CSc3nc4ccc(Cl)cc4[nH]3)no2)s1,i,0.01
O=C(COc1ccc(F)cc1)N1CCC(N2CCN(Cc3ccc(F)cc3)C(=O)C2=O)CC1,i,-0.24
O=C1COc2ccc(S(=O)(=O)N3CCN(C(=O)Nc4ccc(F)cc4)CC3)cc2N1,i,0.16
c1cc(-c2noc(CCc3nnc4ccc(N5CCN(C6CCCCC6)CC5)nn34)n2)ccn1,i,-1.3
Cc1ccc(S(=O)(=O)NC2CCN(C(=O)c3cnccn3)CC2)cc1,i,1.6
Cc1ccc(-c2ccc(NC3CCCC3)nn2)cc1S(=O)(=O)N1CCOCC1,i,0.3
COc1ccc(Cl)cc1NC(=O)C1CCN(S(=O)(=O)c2c(C)[nH]c(C)c2C(=O)N2CCCC2)CC1,i,0.96
O=C(Cn1c(N2CCCCC2)nc2ccsc2c1=O)NC1CC1,i,0.6

# Retrieved by structure from the list above:
SMILES,Choline anaer gr,Choline anaer gr early
O=C1COc2ccccc2N1Cc1nc(-c2ccc3c(c2)ncn3C2CCCC2)no1,i,0.15
CN1CCCn2nc(C3CCN(C(=O)CC(C)(C)C)CC3)cc2C1=O,i,-0.07

# The list continues.
SMILES,Choline anaer gr,Choline anaer gr early
O=C(NCc1ccccc1)C1CCCN(c2nc3ccc(Br)cc3[nH]2)C1 (configuration not stated),i,-0.61
Cn1nc(C(=O)N2CCCC(C(=O)NC3CC3)C2)c2c1CCN(C(=O)CC1CCCC1)C2 (configuration not stated),i,0.24
Cc1csc(-c2cc(S(=O)(=O)NCCN3CCCC3)cn2CC(=O)N2CCCCC2)n1,i,-0.78
COc1ccc(S(=O)(=O)N2CCC(c3noc(-c4ccccc4)n3)CC2)cc1,i,0.11
O=C(Nc1ccc2c(c1)nc1n2CCN(Cc2ccccc2)C1)C1CCCCC1,i,2.01
Cc1nc(-c2ccc(C)c(-n3cc(C(=O)N4CCc5ccccc54)c(C)n3)c2)no1,i,1.07
COc1ccc2oc(-c3noc(-c4cnccn4)n3)c(C)c2c1,i,-0.41
O=C(CSc1nc2c(sc3ccccc32)c(=O)n1Cc1cccnc1)Nc1ccc(O)c(O)c1,i,0.53
COc1cc(Nc2ncc3c(n2)CCN(S(=O)(=O)c2cc(OC)ccc2OC)C3)cc(OC)c1,i,0.77
Cc1c2c(nn1-c1ccc(SCc3ccccc3F)nn1)CCC2,i,3.18
CCNc1cc(C)nc(N2CCN(C(=O)CC)CC2)n1,i,-0.54
CCn1c(CN(c2ccc(F)cc2)S(C)(=O)=O)nnc1SCC(=O)N1C(C)CCCC1C (configuration not stated),i,-0.15
CCOC(=O)c1c(NC(=O)CSc2nnc(CNC(=O)Cc3ccc(OC)cc3)n2C)sc2c1CCC2,i,0.5
O=C(NC1CCN(Cc2ccccc2)CC1)C1CCN(c2ncc(-c3ccccc3)cn2)CC1,i,-0.68
COc1ccc(C2CC(=O)N(c3cc(C)cc(C)c3)C(=O)C2)cc1OC,i,0.5
OC(CCN1CCCCC1)(c1ccccc1)C1CCCCC1 (configuration not stated),i,0.31&-0.01
O=c1ccn(-c2ccccc2)nc1-c1nc(-c2ccc3c(c2)OCO3)no1,i,-0.03
CN(CC(=O)N1CCCC1)c1ccc(NC(=O)c2ccc(Br)cc2)c(C(=O)O)c1,i,-0.53
CCCCNC(=O)CCn1c(=S)[nH]c2c(oc3ccccc32)c1=O,i,0.09
Cc1cc(N2CCCC2)n2nc(CN3CCN(c4ccc(F)cc4)CC3)nc2n1,i,-0.3
Cc1nnc2ccc(N3CCC(C(=O)N4CCN(c5ccc(Cl)cc5)CC4)CC3)nn12,i,-0.45
O=S(=O)(c1ccc(-c2ccno2)s1)N1CCC2(CC1)OCCO2,i,-0.24
CCCCn1c(SCc2c(C)noc2C)nc2c(sc3ncccc32)c1=O,i,0.68
CC(C)NCc1ccc(-c2cc(Cl)ccc2Cl)o1,i,-0.27
O=C(CSc1nccn2nc(-c3ccc(Cl)cc3)cc12)Nc1ccc2c(c1)OCCO2,i,1.1

# New compounds follow:
SMILES,Choline anaer gr,Choline anaer gr early
CCN(CC)c1cc(CNC(=O)Nc2ccc3c(c2)OCO3)ccn1,i,-2.19
Fc1ccccc1CN1CCC(CNc2nn3nnnc3c3ccccc23)CC1,i,0.71
CC(C)Cn1c(=O)c2ccc(C(=O)NC3CCCC3)cc2n2c(=S)[nH]nc12,i,-0.81
Cc1cc(Cl)ccc1S(=O)(=O)Nc1cc2c(cc1N1CCOCC1)n(C)c(=O)n2C,i,-0.08
CCOC(=O)C1CCN(C(=O)C2=C(C)C(=O)OC23CCN(S(C)(=O)=O)CC3)CC1,i,0.21
CC(C)CNC(=O)N1CCCC(C)(C(=O)NCc2ccc(F)cc2)C1 (configuration not stated),i,-0.64
Cc1ccc(C)c(CN2CCCC2c2cc(C)on2)c1 (configuration not stated),i,-0.7
COc1ccc(-c2cc3n(n2)CCC(=O)N3Cc2ccc(C(=O)N3CCC(C(N)=O)CC3)cc2)cc1,i,-0.18
Cc1nn(-c2ccc3nnc(C)n3n2)c2c1C(c1cccc(OCc3ccccc3Cl)c1)CC(=O)N2 (configuration not stated),i,-1.22
O=C(Cn1c(=O)c2cccnc2n(-c2ccccc2)c1=O)Nc1ccc(Br)cc1,i,-0.18
CCCN1CCN(C(=O)c2cnc3c(C)cccn3c2=O)CC1,i,-0.88
O=C(NC1CC1)c1cc2n(n1)CCCN(Cc1cccc(F)c1)C2=O,i,0.41
CC(=O)Nc1ccc(C)cc1S(=O)(=O)N1CCN(Cc2nc3cc(C(=O)N4CCCCC4)ccc3o2)CC1,i,0.02
Cc1nn(C)c2ncc(C(=O)NCc3ccc4c(c3)OCO4)c(NCc3ccccc3)c12,i,-0.13
Cc1ccc(NC(=O)c2ccc3nnc(C)n3c2)cc1F,i,0.75
O=C(O)C1CCNCC1,i,0.93
O=C(CSc1nc2ccccc2c(=O)n1CC1COc2ccccc2O1)NCCc1ccccc1 (configuration not stated),i,1.52
CC(C)C(=O)Nc1cccc(N2CCn3c(nc4cc(Cl)ccc43)C2)c1,i,-1.5
Cc1nn(-c2ccc(N3CCCCC3)nn2)c(C)c1CCC(=O)NCC1CCCO1 (configuration not stated),i,0.68
COc1cc(OC)c(NS(=O)(=O)c2ccc3c(c2)-c2oncc2CO3)cc1Cl,i,-1.21
Cc1cc(C(=O)Nc2c(C)cccc2C)c2ccccc2n1,i,0.22
CC(C)(C)n1ncc2c(=O)n(Cc3cccc(F)c3)cnc21,i,-1.53
CC(C)(C)c1csc(-c2csc(S(=O)(=O)NCc3cc(F)cc(F)c3)c2)n1,i,-0.22
O=C(NC1CCCCC1)c1ccccc1NC(=O)c1nsc2ccccc12,i,-1.47
CCCCCn1c(=O)c2c(nc3n2CCN3c2ccc(OC)cc2)n(C)c1=O,i,-1.32

# Record cards, as listed above.
# Shown for `O=C(Cn1c(=O)c2cccnc2n(-c2ccccc2)c1=O)Nc1ccc(Br)cc1` → Choline anaer gr = i; Choline anaer gr early = -0.18
# Shown for `O=C(NC1CCCCC1)c1ccccc1NC(=O)c1nsc2ccccc12` → Choline anaer gr = i; Choline anaer gr early = -1.47

# A different layout for 4 compounds above.
structure: CC(C)C(=O)Nc1cccc(N2CCn3c(nc4cc(Cl)ccc43)C2)c1
  Choline anaer gr: i	Choline anaer gr early: -1.5

structure: Cc1nn(-c2ccc(N3CCCCC3)nn2)c(C)c1CCC(=O)NCC1CCCO1 (configuration not stated)
  Choline anaer gr: i	Choline anaer gr early: 0.68

structure: COc1cc(OC)c(NS(=O)(=O)c2ccc3c(c2)-c2oncc2CO3)cc1Cl
  Choline anaer gr: i	Choline anaer gr early: -1.21

structure: Cc1cc(C(=O)Nc2c(C)cccc2C)c2ccccc2n1
  Choline anaer gr: i	Choline anaer gr early: 0.22

# Further results follow:
SMILES,Choline anaer gr,Choline anaer gr early
Cc1csc(-c2cc(S(=O)(=O)NCC(C)c3ccccc3)c(C)s2)n1 (configuration not stated),i,0.72
Cc1cc2c(cc1S(=O)(=O)N(C)CC(=O)N1CCc3ccccc31)OC(C)C(=O)N2 (configuration not stated),i,0.56
CCOc1cc(C2C3=C(CC(C)(C)CC3=O)Nc3onc(C)c32)ccc1OC (configuration not stated),i,-0.32
CCOC(=O)C1CCN(C(=O)C2CCCN2c2nnc(N3CCCC3=O)s2)CC1 (configuration not stated),i,0.35
Fc1ccc(Cl)cc1-c1nc(-c2ccn3cnnc3c2)no1,i,0.69
CC(NC(=O)c1ccccc1)c1nc(-c2ccc(-c3csc(C4CC4)n3)cc2)no1 (configuration not stated),i,1
CC(=O)CC(c1ccccc1)c1c(O)c2ccccc2oc1=O (configuration not stated),i,0.68&0.06
Cc1ccc(C)c(N2CCN(c3cc(C(=O)O)c4cc(NS(=O)(=O)c5ccc(F)cc5)ccc4n3)CC2)c1,i,-0.59
CCCc1cc(C2CCCN2Cc2cc(OC)cc(OC)c2)no1 (configuration not stated),i,-0.76
